Source: PubChem (ICCB-Longwood Screening Facility, Harvard Medical School)
HCMV UL50-53 inh – inhibitors of HCMV UL50-UL53 interaction, biochemical, HTRF | inhibition, % (no concentration beside the values) | normalized percent inhibition | AID 1918969, 2023 | HCMV UL50-UL53 nuclear egress complex (human cytomegalovirus) | actives 0.15% (n = 190,000);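 active means both replicates at 50% or more, plus weaker picks with an unusually low signal ratio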;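 further: stock transfer was 100 nL into about 20 µL; 0% = negative control wells and 100% = wells with untagged competitor protein; inactives centre near -12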
Sa growth 42C – S. aureus growth inhibition at 42 and 30 °C, primary screen, LtaS inhibitor project, RN4220, two temperatures. OD600, 20 h, 42 °C; active compounds read low. relative growth, % (test concentration not listed). actives 0.53% (n = 170,000). AID 720641, 2013;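 active means growth at 42 °C up to 50% and 20 or more points under that at 30 °C, or under 10% at both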;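 further: 300 nL library stock went into each well; scaled to the means of positive and negative controls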
GIV Gai3 FP – inhibitors of GIV peptide binding to Galpha-i3, primary screen, biochemical, fluorescence polarization, FITC-GIV GBA peptide, rat Galphai3 | 90 min; active compounds read low; scaled: aluminum fluoride 0%, vehicle 100% | percent of control (FP), % (test concentration not listed) | actives 0.42% (n = 210,000) | AID 1224905, 2016;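 active means replicate mean at 85% of control or lower, very high polarization wells dropped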;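 further: lower values mean more displacement of the GIV peptide from Galpha-i3; wells of about 15 µL received 100 nL stock; the first replicate is given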
Target sequence (P08753 whole entry, looked up): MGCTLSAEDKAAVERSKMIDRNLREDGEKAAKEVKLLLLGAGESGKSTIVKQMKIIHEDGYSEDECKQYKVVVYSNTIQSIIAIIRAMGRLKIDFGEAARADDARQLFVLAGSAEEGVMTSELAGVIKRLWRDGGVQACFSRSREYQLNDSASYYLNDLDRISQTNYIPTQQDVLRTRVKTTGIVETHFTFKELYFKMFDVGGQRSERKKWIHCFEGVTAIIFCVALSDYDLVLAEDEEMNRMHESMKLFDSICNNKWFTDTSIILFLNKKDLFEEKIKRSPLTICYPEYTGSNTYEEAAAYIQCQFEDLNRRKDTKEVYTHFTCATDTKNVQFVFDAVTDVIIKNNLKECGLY
Sa growth 42C second temp – also measured in Sa growth 42C; calls as there; relative growth, %; measured here: growth at 30 °C;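 optical density after 20 h as mean of two plates; 100% = untreated growth and lower means inhibition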
The depositor's hits bear a star; . = no result given; & = joins results of further samples.

Results follow in this order: HCMV UL50-53 inh | Sa growth 42C | Sa growth 42C second temp | GIV Gai3 FP
- Cc1nn(-c2ccc(N3CCCC3)nn2)c(C)c1CCC(=O)N1CCN(c2ccccc2)CC1
 : . | 78 | 89 | 94
- Cc1ccc(S(=O)(=O)N2CCOCC2)cc1NS(=O)(=O)c1cc(C(=O)Nc2ccccc2)c(Cl)cc1Cl
 : -11 | . | . | 99
- O=C(NCc1ccccc1)c1ccc2c(=O)n3nc(Nc4ccccc4)sc3nc2c1
 : -15 | 94 | 75 | 99
- CSc1sc(-c2ccon2)c(-c2ccccc2)c1C#N
 : -3 | 93 | 85 | 100
- CCOC(=O)c1c(C)nn(-c2ccc(N3C(=O)CCC3=O)cc2)c1C
 : -26 | 98 | 95 | 98
- COC(=O)C1=C(C)NC2=C(C(=O)c3ccccc32)C1c1ccc(O)c(OC)c1 (stereo unspecified)
 : -102 | 77 | 68 | 108
- CCN1C(=O)c2cccc3c(S(=O)(=O)N4CCc5ccccc54)ccc1c23
 : 2 | 109 | 103 | 101
- CCN(CC)C(=O)Oc1ccc2c(C)c(-c3ccc(OC)cc3)c(=O)oc2c1
 : -17 | 96 | 91 | 112
- Cc1ccccc1NC(=O)Cn1c(=O)n(Cc2ccccc2)c(=O)c2c(C)c(C)sc21
 : 16 | 97 | 106 | 105
- CC1CCCC(NC(=O)CSc2ncnc3ccccc23)C1C (stereo unspecified)
 : -26 | 137 | 78 | .
- CCn1c(=O)c2sccc2n2c(CCC(=O)Nc3ccc(F)cc3)nnc12
 : -1 | 88 | 87 | 106
- Cc1ccc(OCCSc2nc(O)cc(=O)n2C2CCCC2)cc1
 : -5 | 120 | 97 | .
- O=S(=O)(c1cccc(Cl)c1)c1nnn2c1nc(NCc1ccc3c(c1)OCO3)c1sccc12
 : . | 113 | 89 | 100
- CCOC(=O)C1Sc2ccccc2NC1=O (stereo unspecified)
 : -1 | 80 | 92 | 104
- CCOc1ccc(C(=O)Nc2cnn(Cc3ccc(F)cc3)c2)cc1
 : -5 | 99 | 84 | 105
- CCC(C)NC(=O)CCn1c(=O)c2ccccc2n2c(=O)[nH]nc12 (stereo unspecified)
 : -31 | . | . | 102
- Cc1ccccc1C(=O)Nc1cccc(OCc2cc(=O)n3c4c(sc3n2)CCCC4)c1
 : 16 | 72 | 93 | 109
- CC(C)S(=O)(=O)c1cscc1NC(=O)Nc1ccccc1
 : -35 | 94 | 83 | 103
- Clc1ccc(-c2ncon2)cc1
 : -25 | 85 | 86 | 97
- COc1ccc(CCNC(=O)C2(c3cccs3)CCOCC2)cc1OC
 : . | 130 | 87 | 98
- O=C(Cc1cn2ccsc2n1)Nc1ccccc1
 : -2 | 96 | 87 | .
- CSc1nc(C)cc(Oc2ccccc2)n1
 : -1 | 96 | 105 | 98
- O=C(Cc1ccccc1)N1CCN=C1SCc1ccccc1
 : . | 86 | 93 | 101
- O=C(Nc1cccc(C(F)(F)F)c1)N1CC2CCCN2c2ccccc21 (stereo unspecified)
 : . | 102 | 94 | 103
- Cc1c(C)n(C)c2ccc(C(=O)N3CCOCC3)cc12
 : -6 | . | . | 109
- O=C(NCc1cccs1)/C(=C/c1cccs1)c1ccccc1
 : 14 | . | . | 101
- COC(=O)C1=C(C)N(c2ccc(N(C)C)cc2)C(C)=C(C(=O)OC)C1c1ccccc1
 : -33 | 99 | 79 | 93
- O=C(NCCc1ccccc1)c1cc(-c2ccco2)on1
 : . | 94 | 90 | 104
- O=C(CC1Sc2ccccc2NC1=O)OCc1nnc(-c2ccccc2)o1 (stereo unspecified)
 : 0 | 84 | 91 | .
- Nc1nc(=O)c2cccnc2s1
 : 4 | 110 | 94 | .
- CC(C)=CCC(C)(C)C1OCCN1C(=O)Nc1ccccc1 (stereo unspecified)
 : 1 | 84 | 118 | 109
- CCCn1c(C)c(Br)c(=O)n(C(C)(C)C)c1=O
 : -18 | 78 | 93 | .
- O=C(c1cnn2cc(Br)cnc12)N1CCCc2ccccc21
 : 11 | 107 | 105 | 111
- Cc1ccc(-c2noc(-c3nnn(CC(=O)Nc4ccc(C)c(Cl)c4)c3N)n2)cc1
 : . | 89 | 89 | 105
- CCOCCOC(=O)C1=C(C)NC2=C(C(=O)CC(c3ccc(Cl)cc3)C2)C1c1ccc([N+](=O)[O-])cc1 (stereo unspecified)
 : -2 | . | . | 108
- COc1ccc2oc(=O)c(C(=O)N3CCN(c4ccc(C)cc4)CC3)cc2c1
 : -19 | 115 | 86 | 97
- CCCCN=C1CCCc2ccccc2N1
 : -8 | 116 | 79 | 98
- CCOc1cc(-c2cc(N)n[nH]2)cc(OCC)c1OCC
 : 6 | 90 | 101 | 99
- COc1ccc(CCNC(=O)Cn2cc(S(=O)(=O)Cc3ccc(F)cc3)c3ccccc32)cc1OC
 : . | 115 | 92 | 104
- O=C(N/N=C/c1ccccc1Cl)c1ccc(=O)[nH]n1
 : -35 | 85 | 86 | 102
- COCC(=O)Nc1ccc2nc(NS(=O)(=O)c3ccccc3)sc2c1
 : 6 | . | . | 105
- COc1cccc(OCc2nnc(SCC(=O)O)o2)c1
 : -15 | 114 | 99 | 103
- Cc1nn(C)c(=O)c2noc(/C=C/c3ccsc3)c12
 : -26 | 102 | 94 | 103
- CCCCNC(=O)c1ccc(N2CCCC2)c(NS(=O)(=O)c2ccc(C)cc2)c1
 : -8 | 96 | 87 | 100
- CCc1ccc(NC(=O)C2CCN(S(=O)(=O)c3ccc4c(c3)C(C)(C)C(=O)N4C)CC2)cc1
 : -14 | . | . | 104

Next records.
Structure	HCMV UL50-53 inh	Sa growth 42C	Sa growth 42C second temp	GIV Gai3 FP
Cc1cc(C)cc(NC(=O)Nc2ccccc2OCc2cc(=O)n3c(ncn3C(C)C)n2)c1	9	.	.	99
COc1ccc(-c2noc(CNC(=O)/C=C/c3ccc(OC)c(OC)c3)n2)cc1	9	92	91	106
CCNC(=S)N1CCN(CC(=O)Nc2cc(Cl)cc(Cl)c2)CC1	-6	95	85	102
CSC1=NNC(c2ccccn2)S1 (stereo unspecified)	-11	111	75	104
CC1=C(C(=O)Nc2ccc(C)cc2C)C(c2sccc2C)n2ncnc2N1 (stereo unspecified)	.	92	87	99
CCOCCc1nnc(NC(=O)C(=O)c2cc(C)n(-c3cccc(C)c3)c2C)s1	-5	83	63	99
O=C(Nc1cccnc1)Nc1c[nH]c2c(Cl)cccc2c1=O	2	116	87	101
CCC(SC1=N/C(=C/c2ccccc2)C(=O)N1c1ccccc1)C(=O)Nc1cc(C)on1 (stereo unspecified)	-20	121	100	104
N#Cc1c(NC(=O)CCSc2nnc3ccccn23)sc2c1CCCC2	-14	77	90	.
Cc1ccc(-c2n[nH]c(=O)c3ccccc23)cc1S(=O)(=O)NCC1CCCO1 (stereo unspecified)	-17	99	84	105
CCOC(=O)c1ccc(N2C(=O)c3[nH]nc(-c4ccc(OC)cc4)c3C2c2ccccc2Cl)cc1 (stereo unspecified)	-22	105	89	107
CCOC(=O)c1c(NC(=O)C(C)Sc2cn(CCNC(=O)c3ccc(OC)cc3)c3ccccc23)sc2c1CCC2 (stereo unspecified)	-7	89	83	101
CCOc1ccc(CNc2ccc(O)cc2)cc1	.	69	31	97
CCC(=O)/C(C)=C/c1ccco1	-3	101	89	113
Cc1c(OCc2ccc(Cl)cc2Cl)ccc2c1OC(C)(C)CC2=O	-39	96	90	102
COC(=O)[C@@H](Cc1c[nH]c2ccccc12)NC(=O)c1ccc2nc[nH]c2c1	-12	104	82	.
Cc1scc(C(=O)NCC2CCCCC2)c1C	0	127	102	102
CC(NC(=O)c1cc2c(=O)[nH]c3ccccc3c2n1C)c1ccc2c(c1)OCCO2 (stereo unspecified)	1	136	96	105
Cc1ccccc1Cn1c(CN2CCCCC2)nc2c1c(=O)n(C)c(=O)n2C	-18	.	.	98
Cc1cc(C(=O)NC(C)C)n(-c2ccccc2)n1	.	66	80	97
O=C(CC1CCS(=O)(=O)C1)Nc1ccc[nH]c1=O (stereo unspecified)	-2	84	91	100
Oc1ccccc1-c1nc(N2CCCCCC2)c2ccccc2n1	15	101	85	105
CCOC(=O)NC1c2ccccc2Oc2ccc(OC)cc21 (stereo unspecified)	-19	101	87	96
C=CCc1ccccc1OCC(O)CNC(C)C (stereo unspecified)	-13&7&-12	92	90	101&107
Cc1ccccc1-c1nnn(CC(=O)N2N=C(c3ccc(Cl)cc3)CC2c2ccco2)n1 (stereo unspecified)	-14	111	96	.
Cc1cccc(OCCSc2nc3ccccc3n2CC(=O)N2CCOCC2)c1C	-25	112	84	102
COc1ccc(S(=O)(=O)N2CCC(NC(=O)NCCC(C)C)CC2)cc1	8	92	95	105
CC1CCN(C(=O)c2sc3ncccc3c2-n2cccc2)CC1	3	.	.	96
S=C(NCCN1CCOCC1)N/N=C/c1ccccc1	-23	81	92	.
O=C1c2ccccc2C(Nc2ccc3c(c2)OCO3)N1Cc1ccccc1 (stereo unspecified)	-15	.	.	100
CCCOC(=O)C1=C(C)NC2=C(C(=O)CC(c3ccccc3)C2)C1c1cc2c(cc1Br)OCO2 (stereo unspecified)	-18	.	.	100
COc1ccc2c(O)c(N=O)ccc2c1	2	11	6	112
CCOc1ccc(-c2cccc(NS(=O)(=O)N(C)C)c2)nn1	-28	87	89	102
Cc1nn(C)cc1CN(C)C(=O)c1cc(-c2ccccc2)nc2ccc(Br)cc12	-37	109	93	105
O=C1c2ccccc2-c2onc3c(Br)cc(N4CCCCC4)c1c23	.	103	49	118
COc1cc(C(=O)OCCN2C(=O)c3cccc4c(N5CCOCC5)ccc(c34)C2=O)cc(OC)c1OC	16	.	.	134
Fc1ccc(-n2cc(-c3ccc4c(c3)OCO4)[nH]c2=S)cc1	.	76	75	107
COc1cc(-c2nn(CCC(N)=O)cc2/C=C(\C#N)C(=O)O)ccc1OC(F)F	-57	82	85	.
Cc1ccsc1CNCCCO	-30	104	88	101
CC1Cc2ccccc2N1C(=O)c1ccc(N2C(=O)CCS2(=O)=O)cc1 (stereo unspecified)	-12	.	.	104
CCN1C(=O)/C(=C2\C=Cc3ccccc3N2CC)SC1=S	-62	109	79	97
CCOC(=O)c1ccc(NC(=O)C2CC(=O)N(C)C(=Nc3cccc(F)c3)S2)cc1 (stereo unspecified)	-29	.	.	103
O=S(=O)(NCC(c1ccco1)N1CCOCC1)c1ccc(Cl)cc1 (stereo unspecified)	.	107	99	103
Cc1ccc(NC(=O)COc2ccccc2O)cc1C	-15	105	91	.
O=C(Sc1ccc(Cl)cc1Cl)c1csc(-c2ccc3nonc3c2)n1	-79	102	93	106
COc1ccc(-c2[nH]ncc2C(=O)O)cc1	.	88	95	104
Cc1ccc2nc3c(cc2c1)CCN3S(=O)(=O)c1ccc(F)c(C)c1	-19	.	.	109
Cc1ccc(-n2nc3c(=O)n(CCCC(=O)NCc4ccccc4C)nc(C)c3c2C)cc1	.	113	100	109
CC(C(=O)NC1CCCC1)N(C)CCOc1ccc(Cl)cc1 (stereo unspecified)	-37	84	86	.
Cc1ccc(C2CCCN2C(=O)c2ccc3c(c2)OCO3)cc1 (stereo unspecified)	-4	.	.	111
Cc1ccc(CN(C)CC(=O)Nc2ccccc2Cc2ccccc2)o1	-8	120	64	.
CC(=O)N1CCc2cc(C(O)CN3CCN(c4cc(Cl)ccc4C)CC3)ccc21 (stereo unspecified)	-9&-26	110	74	106&96
COc1ccc(O)c(C=Nc2ccccc2)c1	-34	115	76	.
C=CCn1c(=O)c2c(nc3n2CCCCN3c2ccc(OCC)cc2)n(C)c1=O	-26	.	.	100
Clc1cccc(CSc2nc(NCCc3ccccc3)c3ccccc3n2)c1	.	150	91	102
CC(OC(=O)c1ccccc1NS(=O)(=O)c1ccc2[nH]c(=O)[nH]c2c1)C(=O)N1CCCCC1 (stereo unspecified)	-1	90	101	.
COc1ccc2c(c1OC)C(=O)OC2Nc1nc2ccc(OC(F)(F)F)cc2s1 (stereo unspecified)	6	78	93	.
CC(C)NC(C)(C)C#N	-5	87	92	.
C#CC1(OC(C)=O)C(C)CN(C)CC1C (stereo unspecified)	2	107	91	93
CC1CCN(C(=O)c2cc(-c3ccc(Cl)cc3)on2)CC1	-2	104	92	108

One compound at a time, from the list above.
Cc1ccc2nc3c(cc2c1)CCN3S(=O)(=O)c1ccc(F)c(C)c1 in the list: HCMV UL50-53 inh = -19; Sa growth 42C = .; Sa growth 42C second temp = .; GIV Gai3 FP = 109
COc1ccc(O)c(C=Nc2ccccc2)c1 in the list: HCMV UL50-53 inh = -34; Sa growth 42C = 115; Sa growth 42C second temp = 76; GIV Gai3 FP = .

Sorted by value in Sa growth 42C second temp (falling): some entries from above
compound	Sa growth 42C second temp
COc1ccc(-c2[nH]ncc2C(=O)O)cc1	95
CC(C(=O)NC1CCCC1)N(C)CCOc1ccc(Cl)cc1 (stereo unspecified)	86
COc1ccc(O)c(C=Nc2ccccc2)c1	76
